Rango complex inh – Rango-importin beta binding inhibition. Rango CFP/YFP FRET sensor + importin beta, 45 min. Potency, µM (top dose mostly 92.2 µM), for inactives: top-dose inhibition of complex formation. 340,000 compounds, 0.031% hits; active = rising FRET ratio curve, often small or poorly fitted; inconclusive = mostly compound fluorescence or quenching in the first reads; inactive = flat curves in all reads;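 further: potency means the concentration at half of the fitted maximal effect; 0% = DMSO wells and 100% = buffer wells lacking importin beta; nearly all actives have a fitted effect of over 15% in size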
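FRET biosensor (snurportin 1 IBB flanked by EYFP and cerulean), 50 nM, with compound 5 min, then 0.125 microM importin beta in PBS, 1 mM DTT, 0.02% Tween-20, 0.1% BSA. CFP/YFP ratio read after 45 min at room temperature; pre-read flags interference.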
Rango dissoc inh – inhibition of RanGTP-driven Rango-importin beta dissociation; O95149+P62826; Biochemical FRET Rango-importin beta, RanGTP-induced dissociation; Potency, µM (titrated, usually from 46.1 µM), for inactives: top-dose activity change, negative = inhibition; 340,000 compounds, 0.071% hits; active means falling FRET ratio curve, often poorly fitted, with flat reads before Ran was added; inconclusive means other falling curves, or compound fluorescence or quenching; inactive means flat or rising ratio curve;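 further: potency means the concentration at half of the fitted maximal effect; % of control where 0% means no effect; nearly all actives have a fitted effect of over 45% in size; -100% = wells without RanGTP and RCC1; the record marks most hits as doubtful in a second field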
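Rango (0.1 uM)–importin beta (0.25 uM) complex; RanGTP-RCC1 trigger; 45 min RT; CFP/YFP FRET read.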
GLA inh pH 4.5 – alpha-galactosidase A (human) inhibition, pH 4.5 | P06280 | purified enzyme, 4-MU-alpha-Gal fluorescence, pH 4.5 | activity change, negative = inhibition, % at 105 µM | 230,000 tested, under 10 active | AID 1467; inconclusive = small, poorly fitted or top-dose-only inhibition, or a rising curve; inactive = flat fitted curve, though single readings scatter; no compound was filed as active;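 further: 0% = full activity with enzyme and -100% = basal without enzyme; dose as in the result columns while the protocol names 77 µM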
Target sequence (P06280 whole entry, looked up): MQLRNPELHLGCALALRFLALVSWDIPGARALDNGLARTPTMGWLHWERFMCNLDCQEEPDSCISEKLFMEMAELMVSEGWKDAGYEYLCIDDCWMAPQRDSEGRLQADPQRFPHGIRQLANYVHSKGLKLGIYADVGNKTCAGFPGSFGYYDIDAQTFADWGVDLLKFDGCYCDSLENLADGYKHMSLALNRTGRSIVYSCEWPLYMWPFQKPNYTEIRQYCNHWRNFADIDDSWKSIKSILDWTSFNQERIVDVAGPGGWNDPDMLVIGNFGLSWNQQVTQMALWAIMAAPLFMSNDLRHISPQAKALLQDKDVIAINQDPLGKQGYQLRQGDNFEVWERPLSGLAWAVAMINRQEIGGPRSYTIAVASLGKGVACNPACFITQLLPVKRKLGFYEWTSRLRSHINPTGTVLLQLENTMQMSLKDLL
miR-21 FLuc – miR-21 reporter, rising signal. 340,000 tested, under 10 active. HeLa miR-21 FLuc reporter, luciferase, 48 h. Potency, µM (doses to about 38.3 µM), for inactives: at the highest dose reporter change, positive = more light; active = well fitted rising curve with a large enough effect; inconclusive = small, poorly fitted or top-dose-only effect; inactive = no such curve, though single readings can be large or run the other way;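 further: % of control where 0% means no effect; miR-21 action dims this reporter so a rising signal means less miR-21 action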
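Using DMEM plus 10% FBS, HeLa miR-21-FLuc cells are incubated with test compounds (final up to about 40uM) for 48 hours; firefly luciferase signal is then imaged following reagent-mediated lysis.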
Numbers without * were called inactive; ? = inconclusive; . = not tested or not shown; [ ] = another dose, or the depositor's remark. Not all compounds are listed (hit frequency here may not be typical).

Rango complex inh,Rango dissoc inh,GLA inh pH 4.5,miR-21 FLuc,Compound
-0.2%,0%,-1,-14%,CC(C)NCC#CCOc1ccc(Cl)cc1
-1.1%,5%,.,.,Cn1cc(S(=O)(=O)NC[C@H]2O[C@@H](n3ccc(=O)[nH]c3=O)[C@H](O)[C@@H]2O)cn1
-0.3%,-2%,-1,5%,CC(C)(C)NS(=O)(=O)c1ccc(/C=C/C(=O)O)cc1
-4.4%,17%,0,1%,CN1C(=O)CC(Nc2cccc3cccc(N)c23)C1=O (centres undefined)
?,-13%,.,0%,O=C1Nc2cc(C(=O)NCCCN3CCCC3)ccc2S/C1=C/c1ccccc1F
0.0%,-20%,7,0%,CCOc1cc(C=O)cc(Br)c1OCC(N)=O
0.9%,0%,-2,2%,O=C(c1nc(SCc2ccc([N+](=O)[O-])cc2)n2ccccc12)C(F)(F)F
-2.9%,-6%,6,24%,COC(=O)CSC1=C(C#N)C(c2ccc(C)o2)CC(=O)N1 (centres undefined)
-2.5%,16%,5,-1%,CCOC(=O)N1CCC(=NNS(=O)(=O)c2cccc([N+](=O)[O-])c2)CC1
0.2%,12%,.,2%,CN1C(=O)C(=O)/C(=C(/O)c2ccccc2)C1c1ccccc1 (centres undefined)
5.0%,-13%,11,0%,CC(C)(CO)NCc1cccs1
?,?,8,-1%,CCOC(=O)/C=c1\s/c(=C\c2ccc3cc(OC)ccc3c2)c(=O)n1CC(=O)NCC1CCCO1 (centres undefined)
-2.4%,6%,.,7%,C#CCOc1ccc(Cl)cc1/C=C1/C(=O)ON=C1C
4.3%,-16%,-5,-4%,COc1ccccc1-c1nn(Cc2ccccc2)cc1/C=C/C(=O)O
5.6%,0%,.,.,CCOc1ccc2nc(SCC(=O)N(CCOC)c3c(N)n(Cc4ccccc4)c(=O)[nH]c3=O)[nH]c2c1

Part of the list above, with tabs:
SMILES	Rango complex inh	Rango dissoc inh	GLA inh pH 4.5	miR-21 FLuc
CCOC(=O)/C=c1\s/c(=C\c2ccc3cc(OC)ccc3c2)c(=O)n1CC(=O)NCC1CCCO1 (centres undefined)	?	?	8	-1%
CCOc1cc(C=O)cc(Br)c1OCC(N)=O	0.0%	-20%	7	0%
CN1C(=O)CC(Nc2cccc3cccc(N)c23)C1=O (centres undefined)	-4.4%	17%	0	1%
CN1C(=O)C(=O)/C(=C(/O)c2ccccc2)C1c1ccccc1 (centres undefined)	0.2%	12%	.	2%
CC(C)(CO)NCc1cccs1	5.0%	-13%	11	0%
O=C1Nc2cc(C(=O)NCCCN3CCCC3)ccc2S/C1=C/c1ccccc1F	?	-13%	.	0%

(listing goes on)
Rango complex inh,Rango dissoc inh,GLA inh pH 4.5,miR-21 FLuc,Compound
-0.4%,-3%,2,-5%,O=C(CCCN1C(=O)/C(=C\c2cccs2)SC1=S)Nc1cccnc1
-3.9%,2%,.,.,COc1cc(C(=O)COC(=O)c2c(C)noc2C)cc(OC)c1OC
0.1%,13%,-1,1%,CNC(=S)Nc1cc(C(=O)N2CCCC2)ccc1N1CCCC1
2.6%,-2%,4,-37%,O=C(Nc1nc2c(s1)CCCC2)c1cc2n(n1)C(C(F)(F)F)CC(C1CC1)N2 (centres undefined)
-0.6%,-1%,12,4%,Cc1ccc(CNC(=O)CNC(=O)c2c(C)nn(C)c2Cl)cc1
-0.2%,10%,.,8%,CC(=O)c1ccc(NC(=O)c2ccc([N+](=O)[O-])o2)cc1
-1.3%,5%,1,?,O=C(Nc1ccc2snnc2c1)Nc1cccc2ccccc12
-1.3%,4%,-4,-6%,C=CCNc1nc(NCC)nc(N2CCOCC2)n1
?,16%,-15,-8%,COc1ccc(S(=O)(=O)N2CCCCCC2)cc1NC(=O)Cc1ccccc1
?,-15%,-5,18%,COc1ccc(Nc2nc(-c3c(C)nc4ncccn34)cs2)cc1
0.3%,8%,1,-33%,CN(CCc1cnn(C)c1)C(=O)CCc1nnc(CCCc2ccccc2)o1
0.3%,-6%,10,-4%,CCOC(=O)C(NC(=O)Nc1ccc(C(N)=O)cc1)(c1ccccc1)C(F)(F)F (centres undefined)
-0.7%,-19%,1,-17%,O=C(c1cn(-c2ccccc2)nc1-c1ccc(F)cc1)N1CCOCC1
3.2%,0%,-9,-13%,O=C(Nc1nc2c(s1)CCCC2)c1cc(-c2ccccc2)nc2ccccc12
0.6%,-3%,-9,4%,O=C(OCCN(CCOC(=O)c1ccncc1)S(=O)(=O)c1cccs1)c1ccncc1
0.5%,28%,6,-2%,Cc1cccc(OCCCC(=O)Nc2nc3ccccc3[nH]2)c1
-0.2%,3%,.,1%,CC(=O)N1CCOc2ccc(S(=O)(=O)NCCc3ccc(S(N)(=O)=O)cc3)cc21
0.7%,1%,1,-9%,Cc1nn(-c2ccc(Cl)cc2Cl)c(=O)c2ccccc12
0.4%,22%,4,-3%,C1COCCNCCOCCOCCOCCN1
3.5%,0%,.,1%,COc1cccc(NC(=O)CN(C)C(=O)CC(C)c2ccccc2)c1 (centres undefined)
-2.3%,15%,.,-1%,Cc1ccc(C)c(SCC(=O)NNC(=O)c2ccccc2)c1
-2.0%,-10%,.,.,CC(C)C(NC(=O)c1ccc(F)cc1)C(=O)N1CCN(C(=O)c2ccco2)CC1 (centres undefined)
.,.,2,-2%,Cc1ccc2nc(-c3ccccc3)nc(SC(C)C(=O)NCc3cccs3)c2c1 (centres undefined)
-2.9%,19%,.,.,O=C(COc1ccc(F)cc1)NCCNC(=O)COc1ccc(F)cc1
0.7%,0%,-5,1%,Cn1c2c(c(=O)n(C)c1=O)CN(CCN1CCNCC1)CN2
-2.2%,-15%,.,.,Cc1cc(=O)c(C(=O)Nc2cccc(N3CCCC3=O)c2)nn1-c1ccccc1F
?,-4%,.,-6%,O=C(CCN1C(=O)/C(=C\C=C\c2ccccc2)SC1=S)Nc1cccc(C(=O)O)c1
2.7%,0%,-6,-12%,O=C(Cc1ccc(-c2ccccc2)cc1)N1CCOCC1
?,-8%,-3,2%,COc1cc(Cl)c(S(=O)(=O)NCc2cccnc2)cc1Cl
-2.2%,1%,-16,-3%,O=C(C1=NNCC1c1ccccc1)C1OC1c1ccccc1 (centres undefined)
0.0%,30%,.,.,Nn1c(SCC(=O)Nc2nccs2)nnc1-c1ccccn1
?,?,-10,-15%,CCOc1cccc(C2C(C(=O)c3ccc(C)o3)=C(O)C(=O)N2c2nccs2)c1 (centres undefined)
?,-6%,-6,-44%,Nn1c(-c2cccs2)nc2sc3c(c2c1=O)CCCC3
-4.9%,3%,-20,-1%,CC1CCCN(c2ccc(C(=O)NCCc3ccccc3)cn2)C1 (centres undefined)
-2.5%,-4%,-15,-18%,CCOC(=O)CC1C(=O)NCCN1S(=O)(=O)c1cc(Cl)c(Cl)cc1Cl (centres undefined)
-2.6%,-17%,-3,24%,CN1c2ccccc2C(C)(C)[C@]12C=Cc1cc(O)ccc1O2
-2.1%,-3%,.,.,COc1ccccc1NS(=O)(=O)c1ccc(C(=O)NCC(c2ccccc2OC)N2CCCC2)cc1 (centres undefined)
?,?,-5,-51%,O=C(O)c1ccc(N/N=C/C2=C(N3CCOCC3)C(=C\c3ccccc3)/CC2)cc1
0.5%,-7%,.,.,CC(C)C[C@H]1CN=C(Nc2ccccc2)N1CCC(C)c1ccccc1 (some centres undefined)
0.1%,-1%,-5,-4%,O=C(Nc1ccc2c(c1)OCO2)c1cnn2c(C(F)(F)F)cc(-c3ccco3)nc12
0.0%,-13%,-12,-10%,CN(C)c1ccc(N/C=C/C(=O)C(F)(F)F)cc1
-3.7%,-2%,-14,-9%,CCN(CC)C(=O)CSc1nc2cc3c(cc2c(=O)n1Cc1ccc2c(c1)OCO2)OCO3
-3.0%,20%,.,-3%,O=C(NCCN1CCNC1=O)C1CCC(=O)N(Cc2ccccc2F)C1 (centres undefined)
-0.2%,5%,12,1%,CCOc1ccc(S(=O)(=O)NCc2cccs2)cc1
2.7%,17%,2,-3%,Cc1c(C2OC(=O)C3(CCCCC3)C(=O)C2(C)C)c(=O)n(-c2ccccc2)n1C (centres undefined)
-0.1%,-1%,.,.,CCOC(=O)c1c(C)[nH]c(C(=O)OCC(=O)N(C)CC(=O)Nc2ccccc2Cl)c1C
0.9%,4%,-3,-11%,C=CCOC(=O)Nc1ccc(Cl)cc1NC(=O)OCC=C
.,.,-2,-7%,O=C(NCc1ccco1)c1cccn2c(=O)c3cc4ccccc4cc3nc12
-3.7%,-10%,12,-1%,O=C(COC(=O)Cn1cnc2ccccc21)NCc1ccc(F)cc1
-2.0%,-5%,2,-2%,COc1ccc(N2C(=O)CC(N(CCc3ccc(OC)c(OC)c3)C(=S)Nc3ccccc3)C2=O)cc1 (centres undefined)
-2.9%,-11%,-10,-6%,COc1ccc(C(=O)Nc2cc(-c3nn4c(C)nnc4s3)ccc2C)cc1
?,-25%,-3,-8%,CC(=O)Nc1cccc(NC(=O)C2CCCN2C(=O)Nc2ccccc2C)c1 (centres undefined)
-2.2%,16%,.,.,O=C(CCc1nc2ccccc2c(=O)[nH]1)Nc1nnc(SCc2ccc(F)cc2)s1
-2.8%,-1%,-16,-14%,Cc1cc2cc(C(c3nnnn3CC3CCCO3)N3CCCc4ccccc43)c(=O)[nH]c2cc1C (centres undefined)
-1.0%,-15%,.,.,C[C@@H](C(=O)N=c1sc2ccccc2n1C)N1C(=O)C2CC=CCC2C1=O (some centres undefined)
2.2%,3%,-4,5%,CN(Cc1ccccc1)C(=O)C1CCC(CNS(=O)(=O)c2cccc3cccnc23)CC1 (centres undefined)
-3.0%,-16%,-10,-4%,Clc1ccc(Cn2ncc3c(NCCN4CCOCC4)ncnc32)cc1
?,?,.,-17%,COc1cc(OC)cc(C(=O)NCCNc2nc3cc(C)cc(C)c3cc2C#N)c1
0.1%,?,1,-13%,O=[N+]([O-])c1ccccc1OCC(O)CNC1CCCC1 (centres undefined)
2.8%,-16%,-16,-12%,COc1cc(C(=O)OCCC(C)C)cc(OC)c1O

Carrying on:
Rango complex inh,Rango dissoc inh,GLA inh pH 4.5,miR-21 FLuc,Compound
?,?,16,-54%,Cn1c(-c2ccc(C=O)s2)nc2ccccc21
-1.0%,-20%,-1,-4%,O=C(CN1CCOc2ccccc21)N1CCCC1
2.2%,-13%,2,0%,CCCCc1cn([C@@H](CCCCN)C(=O)N2CCNCC2)nn1
1.1%,20%,.,-19%,Cc1ccnc(NC(=O)CCS(=O)(=O)c2ccccc2)c1
0.5%,17%,8,-1%,CC(C)Cn1c(N)cc(=O)n(C)c1=O
-1.1%,3%,3,-15%,CSc1nc2nc(-c3ccccc3)cc(=O)n2[nH]1
-1.7%,8%,.,1%,CN1N=C(C(=O)N2CCCC(Nc3ccc(F)c(F)c3)C2)CCC1=O (centres undefined)
-4.7%,0%,-3,6%,CC(=O)N1CCCc2cc(S(=O)(=O)CCC(=O)N3CCN(c4cccc(C)c4)C(C)C3)ccc21 (centres undefined)
-0.3%,9%,.,0%,O=C(NC(=S)N1CCOCC1)c1ccc(F)cc1
?,11%,0,-48%,Nc1nc2ccccc2n1/N=C/c1ccc(Br)cc1
?,?,0,5%,O=C(NCCc1ccccc1)c1ccc2nc(-c3ccco3)c(-c3ccco3)nc2c1
-2.3%,1%,-3[21.1 µM],-4%,CCOC(=O)c1cc(-c2ccc(Cl)cc2)nc2c1c(=O)[nH]c(=O)n2CCOC
7.7%,-19%,3,-42%,Cc1ccsc1/C=N\Nc1cn[nH]c(=O)c1Cl
-1.4%,-6%,-5,-7%,COC(=O)c1cn(CC(=O)Nc2ccc(F)cc2)c2ccccc12
1.1%,-2%,.,0%,COc1cccc(N(C(=O)CNC(=O)c2ccco2)C(C(=O)NC2CCCCC2)c2cccnc2)c1 (centres undefined)
0.6%,-6%,7,-22%,Cc1ccc(SCC(=O)NCC(C)C)cc1
-2.4%,-17%,.,-16%,O=C(Nc1ccc2ccccc2n1)Nc1ccccc1F
-1.5%,0%,-3,-1%,C=CCn1c(Cc2ccccc2)nnc1SCc1nc2ccccc2c(=O)[nH]1

Screening data: PubChem, National Center for Advancing Translational Sciences (NCATS)
